Bead autofluor: counter-screen for toxin protease inhibitors: compound fluorescence. compound autofluorescence counterscreen, microsphere flow cytometry; hits give high values. fluorescence intensity (concentration not given with the values). actives 3.1% (n = 360,000). AID 624483;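 active = at least 3 SD above the mean of all compounds, about 16000 in these data; inconclusive = too few beads counted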;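 also: 100 nL of 1 mM stock went into each well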
ugtP null kill: growth inhibition of S. aureus ugtP deletion strain. growth inhibition, % (concentration not given with the values). S. aureus RN4220 ugtP deletion, OD600 growth, 16 h; some inactives read as strong as hits. actives 0.54% (n = 330,000);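 active = z-score under -3 and OD600 up to 0.15 on both plates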;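 also: plate controls were untreated wells for no effect and antibiotic for full effect; wells of about 80 µL received 100 nL stock; the first replicate is given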
BJeLR viability: BJeLR cell viability loss; inhibition, % (no concentration beside the values); actives 0.17% (n = 300,000); BJeLR (HRASV12) viability, CellTiter-Glo ATP luminescence, 48 h; reference of the scale not given here; AID 1554;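 active = replicate mean above 50%; inconclusive = above 50% but judged a plate artefact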;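 also: 50 nL library stock added to about 25 µL; numbers are from one replicate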
RN4220 kill: S. aureus RN4220 growth inhibition. OD600, 16 h. inhibition, % (test concentration not listed). actives 0.33% (n = 330,000);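 active = z-score of -3 or lower and OD600 up to 0.18 on both plates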;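 also: plate controls were untreated cells for no effect and reference antibiotic for full effect; stock transfer was 100 nL into about 80 µL; one replicate is shown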
PrP UTR inh: suppresses PrP 5' UTR mRNA reporter expression; actives 0.35% (n = 340,000); inhibition, % (no concentration beside the values); cell-based PrP 5' UTR mRNA reporter, plate reader;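 active = every replicate at 50% or more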;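 also: 0 = median of the neutral control wells; tested in H4 reporter cells; numbers are from one replicate; inactives centre near -14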
Mtb hypoxia inh: reduces hypoxia-regulated biosensor signal in M. tuberculosis | M. tuberculosis hypoxia-regulated fluorescent reporter, fluorescence | fluorescence inhibition, % (test concentration not listed) | actives 0.1% (n = 300,000) | AID 1159583;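 active = 35 to 45% if threefold the growth effect, above 45% if 1.5-fold the growth effect; inactive = the rest, general growth blockers included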;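 also: wells of about 50 µL received 100 nL stock; 0% = vehicle wells and 100% = reference inhibitor wells; whole bacteria with a GFP reporter of the hypoxia response; strong numbers were not always called active; many hits fall short of the cut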
Mtb hypoxia inh growth: recorded beside Mtb hypoxia inh, whose call it bears; growth inhibition, %; measured here: M. tuberculosis growth (absorbance);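 0% = vehicle and 100% = reference antibiotic; read after six days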
Numbers without * were called inactive; ? = inconclusive; . = not tested or not shown.

Preview, 3 compounds:
1: COC(=O)[C@H](Cc1c[nH]c2ccccc12)NC(=O)CCCc1c[nH]c2ccccc12
2: COC(=O)C1=C(c2cccc(OC)c2OC)CC2CCC1N2C(=O)N1CCOCC1 (centres undefined)
3: O=C(O)CCC(=O)N1CCN(c2ncccn2)CC1

Assay by compound	1	2	3
Bead autofluor	3694	.	4438
ugtP null kill	-2	2	7
BJeLR viability	9	.	8
RN4220 kill	2.4	3.1	-0.8
PrP UTR inh	-14	.	-9
Mtb hypoxia inh	-11	11	6
Mtb hypoxia inh growth	5	9	11

The list itself, from the start:
1: COC(=O)[C@H](Cc1c[nH]c2ccccc12)NC(=O)CCCc1c[nH]c2ccccc12
2: COC(=O)C1=C(c2cccc(OC)c2OC)CC2CCC1N2C(=O)N1CCOCC1 (centres undefined)
3: O=C(O)CCC(=O)N1CCN(c2ncccn2)CC1
4: CCCCCCn1c(N)c(C#N)c2ccc([N+](=O)[O-])cc2c1=O
5: Cc1ccc(S(=O)(=O)Nc2nc3ccccc3nc2N2CCN(c3ccccc3F)CC2)cc1
6: O=C(CNC(=O)c1cccc(S(=O)(=O)N2CCc3ccccc32)c1)Nc1ccc(F)c(F)c1F
7: COCCn1c(COc2ccc(OC)cc2)nc2ccccc21
8: COc1c([N+](=O)[O-])cc(C(=O)NNC(=O)c2ccc(C)cc2)cc1[N+](=O)[O-]

Assay by compound	1	2	3	4	5	6	7	8
Bead autofluor	3694	.	4438	4109	4246	?	2221	4019
ugtP null kill	-2	2	7	0	19	-11	11	8
BJeLR viability	9	.	8	-5	-2	.	9	-1
RN4220 kill	2.4	3.1	-0.8	-3.1	-2.3	-5.8	-2.5	0.6
PrP UTR inh	-14	.	-9	-28	-16	-14	-41	-18
Mtb hypoxia inh	-11	11	6	8	.	-2	.	16
Mtb hypoxia inh growth	5	9	11	-4	.	-3	.	28

9: COc1ccc(N2C(=O)c3ccccc3NC2c2ccc(OC)c(CSc3ccccn3)c2)cc1 (centres undefined)
10: CC1(C)CC2CC(C)(CN2C(=O)c2cc(-c3ccccc3O)on2)C1 (centres undefined)
11: O=C(CS(=O)(=O)c1ccccc1)Nc1ccccn1
12: CCOC(=O)CN1C(=O)C2(C(C#N)=C(N)Oc3ccccc32)C(C(=O)OC)=C1C (centres undefined)
13: CN(CC(=O)Nc1ccc2c(c1)OCCO2)S(=O)(=O)c1cccc2cccnc12
14: COC(=O)CSc1n[nH]c(-c2ccncc2)n1
15: CN(c1ccccc1)S(=O)(=O)c1cccc(NC(=O)COc2ccccc2)c1
16: O=C(c1ccccc1OCc1ccc(Cl)cc1)N1CCN(c2ccccn2)CC1

Assay by compound	9	10	11	12	13	14	15	16
Bead autofluor	11231	5901	4159	4146	4023	3910	6852	4286
ugtP null kill	1	-13	4	-6	5	2	1	14
BJeLR viability	2	1	-20	2	-2	-2	.	-7
RN4220 kill	3.0	4.0	4.5	23	0.2	0.6	6.1	9.6
PrP UTR inh	-49	-4	-13	-12	-3	-18	-13	-21
Mtb hypoxia inh	11	3	11	.	.	-8	5	7
Mtb hypoxia inh growth	-3	1	3	.	.	2	3	7

17: COc1ccccc1Nc1ncnc2c1c(C)c(C)n2CCO
18: O=C(O)Cn1c(SC2CCCCC2)nc2ccccc21
19: Cc1cc2occ(CC(=O)N(C)CC(=O)Nc3ccccc3Cl)c2cc1C
20: COc1cc([N+](=O)[O-])ccc1NC(=O)/C=C/C(=O)O
21: C1CCN(c2nc(N3CCCCC3)nc(N3CCNCC3)n2)CC1
22: CS(=O)(=O)N1CCCC(C(=O)NCCc2ccc(Cl)cc2)C1 (centres undefined)
23: Cc1ccc(C(=O)O)cc1[N+](=O)[O-]
24: CCC(C)N1CCN(C(=O)Cc2ccccc2)CC1 (centres undefined)

Assay by compound	17	18	19	20	21	22	23	24
Bead autofluor	3319	2778	6457	4404	2955	6714	5295	?
ugtP null kill	7	-5	-2	5	-1	13	1	-1
BJeLR viability	0	0	-1	-3	13	-7	.	2
RN4220 kill	1.6	-8.6	5.0	1.3	-6.4	4.4	2.3	7.5
PrP UTR inh	.	-17	-21	-22	-27	-8	-15	-12
Mtb hypoxia inh	3	2	-8	5	3	14	-6	13
Mtb hypoxia inh growth	-5	9	8	9	5	4	7	11

25: COc1ccc(-c2cnc(SCC(=O)Nc3cc(C)on3)n2Cc2ccco2)cc1
26: COc1cc(NC(=S)NC(C)=O)ccc1NC(=O)C(C)C
27: CCC(=O)NN=C(C)CC(=O)Nc1ccc2ccccc2c1
28: Cc1ccc(NC(=S)N/N=C2\CC(C)(C)Oc3ccc(O)cc32)cc1
29: N#Cc1ccccc1CSc1ncccc1C(=O)O
30: O=[N+]([O-])c1cc(C(F)(F)F)cc([N+](=O)[O-])c1NCCCNc1ccc([N+](=O)[O-])c2cccnc12
31: S=C(Nc1ccc(Cl)c(Cl)c1)NN1CCOCC1
32: CCCn1c(NCc2ccco2)nc2c1c(=O)n(C)c(=O)n2C

Assay by compound	25	26	27	28	29	30	31	32
Bead autofluor	3499	16967*	.	2291	5862	3231	10183	2495
ugtP null kill	13	13	0	.	4	-15	22	-5
BJeLR viability	1	-15	.	7	3	3	11	8
RN4220 kill	2.0	6.6	1.3	.	1.6	7.7	-0.3	0.9
PrP UTR inh	-14	-10	.	-7	0	-17	-11	-12
Mtb hypoxia inh	1	16	9	.	-1	-4	11	.
Mtb hypoxia inh growth	2	3	-3	.	-11	-4	9	.

33: Cc1ccc(-c2nc(P(=O)(c3ccccc3)c3ccccc3)c(N3CCOCC3)o2)cc1
34: O=[N+]([O-])c1ccc(CSc2ccc(S(=O)(=O)N3CCCCC3)cn2)cc1
35: N/C(Cn1cncn1)=N\NC(=O)C(=O)Nc1ccc(Cl)cc1Cl
36: CC(=O)c1ccc2noc(-c3ccc(Cl)cc3)c2c1
37: CCOC(=O)C1Cc2ccccc2CN1 (centres undefined)
38: CCCCN1C(=O)NC(=O)C2(Cc3c(nc4c(C)cccn4c3=O)N3CCc4ccccc4C32)C1=O (centres undefined)
39: COc1ccc(CCNC(=O)C(=O)N2CCCCC2)cc1OC
40: Fc1ccc(-c2cc(C(F)(F)F)nc(NCc3cccs3)n2)cc1

Assay by compound	33	34	35	36	37	38	39	40
Bead autofluor	2135	8655	3702	4480	5881	9271	3288	6955
ugtP null kill	-8	-8	5	-4	19	-9	4	-10
BJeLR viability	0	.	12	3	15	-5	5	-7
RN4220 kill	-0.5	-3.0	3.8	8.7	6.9	5.0	1.3	-1.7
PrP UTR inh	-16	-10	-25	-18	-22	-9	-14	-15
Mtb hypoxia inh	-5	1	-3	-6	3	10	.	4
Mtb hypoxia inh growth	0	2	1	-6	-2	3	.	-2

41: COc1ccc(NC(=O)COC(=O)/C=C/C(=O)OCC(=O)Nc2ccc(OC)c(Cl)c2)cc1Cl
42: COc1ccc(C(C(=O)NC(C)(C)C)N(Cc2cccs2)C(=O)CCC(=O)Nc2cc(C)on2)cc1 (centres undefined)
43: COc1ccnc(-n2cccc2/C=N/O)c1C#N
44: CC(=O)c1cccc(NC(=S)NC(=O)CC(C)C)c1
45: FC(F)Oc1ccc(C=NN2CCCCC2)c(OC(F)F)c1
46: CC1Cc2ccccc2N1Cc1cc(=O)n2ccsc2n1 (centres undefined)
47: CC1CCN(S(=O)(=O)c2ccc(N/N=C(/C#N)C(N)=O)cc2)CC1
48: COc1cc(C(=O)NCCc2c[nH]c3ccccc23)ccc1OCc1c(C)noc1C

Assay by compound	41	42	43	44	45	46	47	48
Bead autofluor	2535	4395	3849	14360	.	3076	2587	5150
ugtP null kill	-3	-2	.	-2	22	0	.	-4
BJeLR viability	1	1	-2	1	.	.	-3	-2
RN4220 kill	-1.9	1.3	.	1.5	8.3	2.5	.	2.0
PrP UTR inh	-7	-11	-12	-9	.	-14	-12	3
Mtb hypoxia inh	0	.	.	10	7	3	.	-17
Mtb hypoxia inh growth	9	.	.	18	-4	9	.	-8

49: Cc1c(CC(=O)N2CCN(C(=O)C3COc4ccccc4O3)CC2)c(=O)oc2c(O)c(O)ccc12 (centres undefined)
50: CCOC(=O)N1CCN(c2nc3ccccc3nc2C(C#N)C(=O)NCCc2ccccc2)CC1 (centres undefined)
51: CCC(CC)NC(=O)COC(=O)c1ccc(OCC(=O)Nc2ccccc2OC)c(OC)c1
52: NC(=O)C(CCCCN1CCCCC1)(c1ccccc1)c1ccccc1
53: CCN(CC)c1nc2c(c(=O)n(C)c(=O)n2C)n1CCCc1ccccc1
54: O=C(NC(=O)c1ccccc1)OCC1CCCN2CCCCC12 (centres undefined)
55: CN(C)CC1(c2ccccc2)CCCC1
56: Cc1nc(NCc2ccccc2)sc1C(=O)Nc1ccccc1

Assay by compound	49	50	51	52	53	54	55	56
Bead autofluor	5370	3529	21089*	3627	4076	4381	17486*	3329
ugtP null kill	.	6	2	5	12	14	1	21
BJeLR viability	10	4	1	.	4	5	2	8
RN4220 kill	.	1.6	0.7	3.0	7.3	4.3	-0.6	6.1
PrP UTR inh	-12	-70	-22	-14	-22	-74	-16	-41
Mtb hypoxia inh	.	1	2	9	2	15	4	6
Mtb hypoxia inh growth	.	2	3	0	5	9	-1	4

57: COc1ccc(NC(=O)c2nc[nH]c2C(=O)Nc2ccccc2C)cc1
58: CCCNc1nc(NCC)nc(OC)n1
59: COCCNc1nc2nonc2nc1N1C[C@H]2CC[C@H]1C2
60: COCCn1c(=NC(=O)CCS(=O)(=O)c2ccccc2)sc2cc(C(=O)OC)ccc21
61: COc1cccc(NC(=O)CSc2nnc(CN3CCOCC3)n2C)c1
62: O=C(NCCCN1CCCC1=O)c1csc2ccccc12
63: Cc1ccc(-c2cc3ncc(C#N)c(N)n3n2)cc1
64: O=[N+]([O-])c1c(C(Cl)Cl)nn(-c2ccccc2)c1N1CCCC1

Assay by compound	57	58	59	60	61	62	63	64
Bead autofluor	.	3043	3504	5373	3783	11920	3298	7130
ugtP null kill	-13	6	.	3	5	0	-12	31
BJeLR viability	26	-6	-4	2	-22	1	-1	0
RN4220 kill	-3.2	-5.9	.	2.6	1.9	0.9	2.7	7.0
PrP UTR inh	-7	-14	-3	-5	-6	-32	-40	-51
Mtb hypoxia inh	-11	7	.	13	.	5	-1	20
Mtb hypoxia inh growth	3	1	.	1	.	9	2	6

65: Cc1ccccc1OCC(O)Cn1c(NCc2ccco2)nc2c1c(=O)[nH]c(=O)n2C (centres undefined)
66: Cc1ccccc1OCCC(=O)NNC(=O)COc1cccc(F)c1
67: COc1cccc(CNC(=O)C(=O)NCCc2ccc(OC)c(OC)c2)c1
68: COc1cccc2c1OCC(CN1CCN(Cc3ccccc3F)C(CCO)C1)=C2 (centres undefined)
69: O=C(NCCN1CCOCC1)c1c(O)nc2sccn2c1=O

Assay by compound	65	66	67	68	69
Bead autofluor	6917	8261	2503	3859	5364
ugtP null kill	0	1	4	11	6
BJeLR viability	3	.	3	-2	-6
RN4220 kill	1.4	1.2	4.3	2.4	0.7
PrP UTR inh	-16	-19	10	-19	-6
Mtb hypoxia inh	1	-1	7	5	9
Mtb hypoxia inh growth	0	-5	12	4	15

Single values from the entries so far.
For RN4220 kill, #65 reads 1.4
For Mtb hypoxia inh, #67 reads 7
For BJeLR viability, #68 reads -2

Assay outcomes from PubChem BioAssay.
